# Source: PubChem
# Arbovirus anti: blocks arbovirus infection; arbovirus infection cell-based antiviral screen; inhibition, % at 10 µM; hit rate 0.37% among 200,000; AID 1251;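 active = inhibition from about 30%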;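 note: bluetongue infection of BSR cells; cell survival read as ATP light after 72 h; 0% = infected wells without compound and 100% = uninfected wells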
# RecA intein inh: Mtb RecA intein splicing inhibition. P9WHJ3. hit rate 0.75% among 290,000. inhibition, %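 (about 9 µM by stock and volumes)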. cell-free RecA intein splicing, fluorescence; in the data active = inhibition above about 30%; inconclusive = no clear call, values can overlap the other calls;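 note: 0% = vehicle wells and 100% = reference inhibitor control wells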
# Target sequence (P9WHJ3 whole entry, looked up): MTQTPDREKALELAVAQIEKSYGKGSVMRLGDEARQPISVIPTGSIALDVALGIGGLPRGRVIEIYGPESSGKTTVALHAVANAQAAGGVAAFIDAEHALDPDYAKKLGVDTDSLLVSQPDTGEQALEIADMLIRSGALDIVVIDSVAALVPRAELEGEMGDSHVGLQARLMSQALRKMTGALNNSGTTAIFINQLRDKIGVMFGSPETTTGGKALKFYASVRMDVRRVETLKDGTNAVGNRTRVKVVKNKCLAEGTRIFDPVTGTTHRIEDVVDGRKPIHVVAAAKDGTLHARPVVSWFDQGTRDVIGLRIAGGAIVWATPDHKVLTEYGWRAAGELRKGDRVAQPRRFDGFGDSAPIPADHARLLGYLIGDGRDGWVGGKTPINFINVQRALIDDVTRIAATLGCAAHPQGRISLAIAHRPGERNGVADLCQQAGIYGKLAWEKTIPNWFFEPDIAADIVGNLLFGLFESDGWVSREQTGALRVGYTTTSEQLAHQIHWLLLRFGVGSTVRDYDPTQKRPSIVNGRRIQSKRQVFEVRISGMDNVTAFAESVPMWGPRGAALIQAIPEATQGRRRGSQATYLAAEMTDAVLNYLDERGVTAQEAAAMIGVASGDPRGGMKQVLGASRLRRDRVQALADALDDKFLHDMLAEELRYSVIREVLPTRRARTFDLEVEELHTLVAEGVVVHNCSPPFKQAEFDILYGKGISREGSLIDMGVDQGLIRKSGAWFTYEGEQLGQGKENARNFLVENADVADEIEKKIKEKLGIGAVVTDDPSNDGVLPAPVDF
# Mtb betalactam: beta-lactam sensitization of Mtb H37Rv | hit rate 0.27% among 330,000 | inhibition, % at 25 µM | M. tuberculosis H37Rv growth with meropenem, percent inhibition; hits of this screen are not shown here;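 active = about 74% or more and at least 40 points above the plate without the antibiotic, then above 30% in a dose series; inconclusive = first-round hits that could not be retested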;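 note: growth measured after seven days incubation then overnight dye step; 0% = bacteria only wells and 100% = bacteria with antibiotic; twin plates without the antibiotic show which effects depend on it; some results filed as inactive read as strong as hits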
# YopH inh: blocks Yersinia enterocolitica YopH tyrosine phosphatase; fluorescence Ex485/Em525; inhibition, %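 (about 10 µM by stock and volumes)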; hit rate 0.16% among 140,000;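 active = inhibition of 50% or more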;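 note: controls were vehicle for no effect and minimum signal wells for full effect; inactives centre near -20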
# Mtb growth: M. tuberculosis H37Rv growth inhibitors, H37Rv strain (AID 1626). hit rate 0.95% among 220,000. M. tuberculosis H37Rv growth inhibition; higher % means a stronger effect. inhibition, % at 10 µM; hits with a dose series show IC50 in µM;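 active = confirmed in a dose series; inconclusive = inhibition above 80% but not taken into the dose series; inactive = below 80% or under 30% at every dose of the series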;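 note: bacteria incubated seven days before Alamar blue readout; 0% = bacteria only wells and 100% = bacteria with antibiotic wells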
# Arbovirus anti repeat: second read-out of Arbovirus anti, no call of its own (marks repeat the call); inhibition, %; measured here: 10K subset replicate screen; many hits read low in the repeat;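 first of two repeat runs on a subset; 0% = infected and 100% = uninfected wells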
# Starred values were filed as active, the others as inactive; i = inactive; u = inconclusive; x = not tested or not shown.
SMILES,Arbovirus anti,RecA intein inh,Mtb betalactam,YopH inh,Mtb growth,others
CCS(=O)(=O)N1CCC(C(=O)NCc2cc(OC)ccc2OC)CC1,4.7,0.3,-0.5,-35.1,0.1%,
CCCCCN(C(=O)CCC(=O)OC(C)C(=O)NC1CCCCC1)c1c(N)n(CCCC)c(=O)[nH]c1=O (centres undefined),x,-3.1,-17.5,x,x,
Cc1ccc2c(COC(=O)c3c(C)noc3C)cc(=O)oc2c1,5.3,2.3,-2.0,x,-5.1%,
CCCn1nc(C(=O)NNC(=O)CSC(C)C(=O)Nc2cc(C)on2)c2ccccc2c1=O (centres undefined),x,3.3,0.8,x,x,
Cc1cc(=O)oc2cc(OCC(=O)N3CCC(C(N)=O)CC3)ccc12,x,9.8,0.6,x,x,
CCOC(=O)N1CCN(c2c(N3CCN(c4cccc(C(F)(F)F)c4)CC3)c(=O)c2=O)CC1,-2.8,-1.5,-6.0,-20.9,-5.8%,
Cc1cc(NC(=O)CSc2nc3cc(Cl)ccc3c(=O)n2CC(C)C)no1,-5.8,0.8,-1.8,x,-7.0%,
CC(=O)C1=C(O)C(=O)N(c2cccnc2)C1c1ccc(Cl)cc1 (centres undefined),-0.7,1.5,-3.8,-29.0,-6.4%,
O=C(CCCn1cnc([N+](=O)[O-])n1)Nc1ccc(Cl)c(Cl)c1,3.0,2.8,-8.1,-31.0,-11.4%,
Fc1cccc(Cl)c1CNCc1ccccc1Cl,-4.8,-1.9,5.8,2.1,3.3%,
Nc1ncnc2nc(SCC(=O)Nc3cccc(C(F)(F)F)c3)[nH]c12,x,2.3,-13.6,x,x,
Cc1cccc(CCNC(=O)CN(C)S(=O)(=O)c2ccc3c(c2)c(=O)n(C)c(=O)n3C)c1,-0.2,-1.3,-13.6,-29.3,4.8%,Arbovirus anti repeat=-0.9
CCCNC(=O)NC(=O)COC(=O)CNS(=O)(=O)/C=C/c1ccccc1,0.1,-1.0,2.1,x,2.7%,
O=C1/C(=C/c2cccc([N+](=O)[O-])c2)CCc2ccccc21,-28.3,45.3*,32.6,-16.3,12.7%,
Cc1cccc(C(=O)NC(=S)N2CCc3ccccc3C2)c1,-4.8,x,82.0,-13.7,u,
CN(C)CCNC(=O)C1CCCNC1=O (centres undefined),3.6,-0.8,10.9,-9.4,-2.8%,
Cc1nc2ccc([N+](=O)[O-])cc2s1,3.0,-1.5,4.5,x,-0.9%,
O=C1OCCC1Sc1nnc(-c2ccco2)o1 (centres undefined),1.1,-2.5,-2.0,-13.3,4.8%,
N#CC1=C(N)Oc2n[nH]c(-c3cccnc3)c2C1c1ccc([N+](=O)[O-])o1 (centres undefined),5.4,28.8,100.4,x,3.0%,
CC(C)CNS(=O)(=O)c1ccc(S(=O)(=O)N2CCN(CCC#N)CC2)cc1,-1.1,-0.9,-3.4,-17.2,-10.5%,Arbovirus anti repeat=-3.0
CCOc1cc(/C=C2\NC(=O)NC2=O)ccc1OC(C)C(=O)O (centres undefined),x,-3.1,-1.4,x,x,
COC(=O)C1CCN(C(=O)Cc2c(OC)ccc3cc(Br)ccc23)CC1,-2.2,-0.5,-6.7,x,0.1%,
CCC(CC)C(=O)Nc1cccc(-c2ccc3nncn3n2)c1,x,-0.3,4.3,x,x,
COc1ccc(CCNCc2ccccc2)cc1,x,1.6,1.3,x,x,
CCN(CC)C(=O)CSc1nnc(SCc2ccc(Cl)cc2)s1,9.6,-1.8,-1.8,-7.2,-0.2%,
O=C(CCC(=O)c1cccs1)OCC(=O)N1CCN(C(=O)c2ccco2)CC1,0.8,-3.2,-5.0,-42.3,0.5%,
Cc1ccc2cc(NC(=O)c3cccc(F)c3)ccc2n1,x,0.7,-2.5,x,1.8%,
COC(=O)c1cc(-c2ccc(Br)cc2)on1,6.8,-3.9,92.3,-22.1,x,Arbovirus anti repeat=-0.1
COc1ccccc1NC(=O)Nc1nnc(CC(=O)Nc2ccccc2C)s1,-4.2,3.3,7.7,x,5.5%,
CC(C)(C)c1ccc(OCC(=O)OCCNC(=O)c2cccnc2)cc1,-2.1,-1.6,-9.6,6.8,4.4%,
CCOC(=O)C1(S(=O)(=O)c2ccc(Cl)cc2)CCN(Cc2ccc(C)cc2)CC1,-5.3,5.2,81.1,34.4,-1.3%,
Brc1ccc(Nc2nc3ccccc3n3nnnc23)cc1,-6.0,-0.1,-1.5,-15.3,x,
C=CCNC(=O)c1ccc(Sc2ccc(C)cc2)c([N+](=O)[O-])c1,4.3,-0.3,-9.9,-41.2,0.7%,
CCCCOc1ccc(OCCCC)c2c1NC1(N2)C(=O)N(C(C)=O)c2ccccc21,1.1,-7.4,-8.9,-28.8,-8.8%,
Cc1ccc(NC(=O)CCC(=O)NNC(=O)C(C)(C)C)c(C)c1,0.8,-0.5,-2.0,x,-0.4%,
COC(=O)CCCCC1SCC(NC(=O)c2ccccc2)C1Cl (centres undefined),-4.6,-1.6,-6.5,x,1.6%,
Cc1cccn2c(=O)c3cc(C(=O)NCC4CCCO4)c(=N)n(CCc4ccccc4)c3nc12 (centres undefined),x,i,0.8,x,x,
O=C(CSc1nc2ccccc2[nH]1)Nc1c(F)cccc1F,8.8,-3.6,2.6,-58.8,-4.5%,
Cc1cc2c(c(=O)n1Cc1ccc3c(c1)OCO3)C(c1cccnc1)C(C#N)=C(N)O2 (centres undefined),-1.1,-1.4,-12.3,-14.1,-4.1%,
S=C(Nc1ccc(Br)cc1Cl)N1CCN(c2ccccn2)CC1,x,-3.2,-1.5,x,x,

# Filtered by structure: the entries above with a nitro group on carbon
SMILES,Arbovirus anti,RecA intein inh,Mtb betalactam,YopH inh,Mtb growth,others
O=C(CCCn1cnc([N+](=O)[O-])n1)Nc1ccc(Cl)c(Cl)c1,3.0,2.8,-8.1,-31.0,-11.4%,
O=C1/C(=C/c2cccc([N+](=O)[O-])c2)CCc2ccccc21,-28.3,45.3*,32.6,-16.3,12.7%,
Cc1nc2ccc([N+](=O)[O-])cc2s1,3.0,-1.5,4.5,x,-0.9%,
N#CC1=C(N)Oc2n[nH]c(-c3cccnc3)c2C1c1ccc([N+](=O)[O-])o1 (centres undefined),5.4,28.8,100.4,x,3.0%,
C=CCNC(=O)c1ccc(Sc2ccc(C)cc2)c([N+](=O)[O-])c1,4.3,-0.3,-9.9,-41.2,0.7%,

# New compounds follow
SMILES,Arbovirus anti,RecA intein inh,Mtb betalactam,YopH inh,Mtb growth,others
O=C(Cc1ccccc1)NCc1ccccn1,-5.3,x,1.8,x,-2.0%,
O=S(=O)(Cc1ccccc1)NCC1CCCN(Cc2ccc3nonc3c2)C1 (centres undefined),-5.7,1.7,1.8,x,-6.5%,
CCC(C)NS(=O)(=O)c1ccc(OCC(=O)N2CCCCC2)cc1 (centres undefined),10.3,0.4,1.5,-5.2,-2.4%,
CCOC(=O)Cn1c(=O)oc2cc(S(=O)(=O)N3CCn4c3nc3ccccc34)ccc21,3.7,1.3,-13.1,-10.5,0.8%,
Cn1nnnc1SCC(=O)NCc1ccco1,0.8,0.2,-7.6,-23.3,2.3%,
O=C(NCC1CCCN(C(=O)Cc2ccccc2Cl)C1)c1ccc(F)cc1 (centres undefined),x,1.7,-3.5,x,x,
COc1ccccc1NS(=O)(=O)c1ccc(Br)s1,7.3,0.9,9.3,-32.0,-1.6%,
O=C(CSc1ccc(-c2ccccc2)nn1)N1CCN(c2ccccc2)CC1,-6.3,-0.9,-1.9,12.7,-10.3%,
COc1ccc(N2CCN(C(=O)c3ccccc3NC(=O)c3ccccc3)CC2)cc1,x,-9.9,-3.5,x,x,
COc1cc(C(=O)NC2CCN(Cc3ccccc3)CC2)cc(Cl)c1OC,x,0.7,-6.5,x,x,
CCOc1ccc(NC(=O)CN(c2ccc(C)cc2)S(=O)(=O)c2c(C)nn(C)c2C)cc1,x,-0.7,4.0,x,x,
CN(CC(CC(=O)Nc1nncs1)c1ccccc1)S(=O)(=O)c1ccc(Br)cc1 (centres undefined),11.8,11.0,-0.6,-50.3,8.5%,
Cc1cc(=O)oc2c(C)c(OC(C)C(=O)NC(Cc3c[nH]c4ccc(O)cc34)C(=O)O)ccc12 (centres undefined),x,-6.9,-4.8,x,x,
COc1cccc(CNC(=O)CCS(=O)(=O)Cc2ccc(C)cc2)c1,x,1.8,-6.9,x,x,
COc1ccccc1-n1cnc2cc(C(=O)N3CCOCC3)ccc21,x,-0.7,-1.6,x,x,
COC(C[C@H]1O[C@H]1C(=O)[C@H](C)OCc1ccccc1)OC,x,-1.9,-5.1,x,-7.0%,
CCOC(=O)C1(Cc2cccc(Cl)c2)CCCN(C(=O)c2cc(C)[nH]n2)C1 (centres undefined),x,2.9,4.4,x,x,
Cc1nc2ccccc2c(=O)n1/N=C/c1ccc(F)cc1,x,1.7,2.4,x,x,
Cn1c(SCC(=O)c2ccc3c(c2)OCCO3)nnc1C1CC1,-2.7,-1.0,-4.0,-23.6,-7.7%,
CC(=O)Nc1ccc(/C=N/NC(=O)CNS(=O)(=O)c2ccccc2)cc1,7.1,-0.4,4.8,x,-1.6%,
CCN(CC(=O)Nc1c(F)cccc1F)C(=O)c1ccc(NC(=O)CC2SC(N3CCCC3)=NC2=O)cc1 (centres undefined),x,2.6,-4.9,x,x,
CCN1C(=O)/C(=C/C=C2\N(CC)c3cc(S(=O)(=O)N(C)C)ccc3N2c2ccccc2)SC1=S,x,-5.0,27.8,x,25.3%,
CCc1ccc(NC(=O)Cn2ccn(-c3cccc(Cl)c3)c(=O)c2=O)cc1,x,0.9,u,x,x,
O=C(CCC(=O)c1cccs1)c1cccs1,-3.5,-0.1,5.6,-10.8,-8.7%,
Cc1ccc(C(c2sc3nc(C)nn3c2O)N2CCN(CCO)CC2)cc1 (centres undefined),-3.0,-1.8,-12.6,x,-5.1%,Arbovirus anti repeat=0.3
CC(C)c1nc(SCC(=O)N2CCCCCC2)c2c(=O)n(C)c(=O)n(C)c2n1,x,4.5,u,x,x,
O=C(CSc1nnc(-c2ccc(C(F)(F)F)cn2)o1)Nc1cccc(Cl)c1,x,-0.2,-8.5,x,10.4%,
CCOc1ccc(OCC)c(NC(=O)CN2CCN(C(=O)c3ccco3)CC2)c1,-5.2,2.9,-0.7,-35.8,0.7%,
Cc1ccnc(NC(=O)C2CCN(S(=O)(=O)c3cccc4nonc34)CC2)c1,0.2,1.6,-1.8,-7.1,2.7%,
Cc1cc(-c2nc3ncccc3o2)ccc1NC(=S)NC(=O)c1ccco1,1.4,-0.1,4.2,x,-1.1%,
CC1(c2nnc(-c3ccc(F)cc3)o2)CC(c2cccc(Cl)c2)=NO1 (centres undefined),x,7.4,5.2,x,-5.2%,
CCC(C)(C)NC(=O)CN(C(=O)CCC(=O)Nc1nccs1)c1ccc2c(c1)OCO2,x,-1.4,-1.3,x,x,
CC1CCCN(C(=O)c2ccc([N+](=O)[O-])o2)C1 (centres undefined),x,-7.9,98.0,x,x,
C/C(=N\NC(=O)CN1CCCCC1)c1ccccc1O,x,-4.2,-0.5,x,x,
CCOC(=O)c1cc(-c2ccc(N3CCOCC3)cc2)nn1-c1ccccc1C(=O)O,x,-2.8,-1.3,x,-3.5%,
CCc1ccc(NC(=O)NNC(=O)c2ccc3ccccc3c2O)cc1,x,-1.7,7.0,x,x,
Cc1ccc(/C=N/N2CCN(Cc3ccc(C)cc3)CC2)cc1,x,-1.2,1.9,x,-2.9%,
O=C(c1ccccc1)c1ccc(OCC(O)CN2CCCC2)cc1 (centres undefined),-20.8,-0.9,2.1,x,-10.8%,
O=C(COc1ccc2ccccc2c1)NCC1CCCO1 (centres undefined),x,3.4,5.7,x,x,
COc1cc(/C=N/n2cnc3scc(-c4cccs4)c3c2=O)cc(OC)c1OC,-10.3,1.1,5.4,-14.8,1.7%,
COc1ccc(OC)c2[nH]c(=O)c(CCNC(=O)C(C)(C)C)cc12,-1.1,2.3,-1.5,-16.4,3.4%,Arbovirus anti repeat=-6.0
CCOC(=O)c1c(C)[nH]c(N=Nc2ccc(C)cc2)c1C,12.7,0.0,80.2,-1.4,35.9%,
C[N+](C)(CC#Cc1ccccc1)CC(=O)c1ccc(Cl)cc1,-6.5,3.4,1.0,-7.3,0.9%,
CCOC(=O)c1c(C)c(C(=O)Nc2cc(F)ccc2F)c(C)n1C,-13.2,4.3,1.7,-21.3,-10.5%,
Cc1ccc(S(=O)(=O)N/N=C/c2ccc(OCC(=O)N3CCOCC3)cc2)cc1,-3.2,-1.1,0.1,x,3.0%,
CCc1c(C(C)O)oc2ccc3c(C)cc(=O)oc3c12 (centres undefined),-1.2,-3.8,x,-23.9,-4.7%,Arbovirus anti repeat=-6.5

# Only part of the results is shown. The share of hits here may be higher or lower than overall.
